HSV replic up = enhancers of HSV replication in host cells, fold increase, host cell viability. HSV replication augmentation in cells. maximum fold increase. actives 0.005% (n = 220,000). AID 1956, 2009;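 active means peak rise of 1.5-fold or more in the series; tested in PC3 cells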;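 further: first round at 10 µM; read as green reporter fluorescence; hits show the peak of a series up to 25 µM; 1 = signal of infected wells without compound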
PKD1 kinase inh = inhibitors of human PKD1 kinase, biochemical, fluorescence polarization. PKD1 kinase fluorescence polarization assay. actives 0.056% (n = 200,000). Serine/threonine-protein kinase D1 (Homo sapiens), Q15139. inhibition, %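 (about 10 µM by stock and volumes)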;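 active means inhibition of 50% or more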;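 further: controls were vehicle for no effect and a reference inhibitor for full effect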
RGS16-Gao HTS = modulators of RGS16 binding to Galphao, primary screen, biochemical, human proteins, multiplexed bead flow cytometry. bead-based flow cytometry RGS16-Galphao binding, fluorescence; actives lie on both sides. binding response (% of control), % at 10 µM. actives 0.38% (n = 220,000). AID 1441, 2008;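 active means below 25% or above 175%, edge rows of some plates excepted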;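 further: Galphao activated by GDP with aluminum fluoride before binding; 100% = wells without compound and 0% = beads without RGS; some results beyond the cut were filed as inactive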
Target sequence (O15492 whole entry, looked up): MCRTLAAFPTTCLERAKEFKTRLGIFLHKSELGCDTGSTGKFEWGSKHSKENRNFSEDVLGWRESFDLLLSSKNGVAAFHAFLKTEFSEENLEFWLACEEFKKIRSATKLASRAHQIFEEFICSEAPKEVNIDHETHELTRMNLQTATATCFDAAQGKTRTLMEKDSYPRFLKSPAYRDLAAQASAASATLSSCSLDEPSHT
Target sequence (P09471 whole entry, looked up): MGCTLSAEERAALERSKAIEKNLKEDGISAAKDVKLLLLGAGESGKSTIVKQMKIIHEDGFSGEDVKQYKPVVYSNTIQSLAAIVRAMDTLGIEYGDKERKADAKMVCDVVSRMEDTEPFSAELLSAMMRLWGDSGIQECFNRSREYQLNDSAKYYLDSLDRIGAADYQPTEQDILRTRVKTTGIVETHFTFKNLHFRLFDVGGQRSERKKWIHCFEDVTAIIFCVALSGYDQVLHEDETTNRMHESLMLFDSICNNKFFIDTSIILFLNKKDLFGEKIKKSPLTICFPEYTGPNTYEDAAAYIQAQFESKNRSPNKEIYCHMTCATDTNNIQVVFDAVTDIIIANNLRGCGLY
GALR2 agonist = GALR2 receptor agonists, primary screen, cell-based; actives 0.48% (n = 140,000); Galanin receptor type 2 (Homo sapiens), O43603; GALR2-expressing cells, agonist activation read-out; activation, %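 (tested at 5 µM)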;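 active means above mean plus 3 SD of all compounds, about 5% in these data, not always enough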;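 further: 0% = vehicle buffer wells and 100% = reference agonist at full effect; tested in CHO reporter cells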
Target sequence (O43603 whole entry, looked up): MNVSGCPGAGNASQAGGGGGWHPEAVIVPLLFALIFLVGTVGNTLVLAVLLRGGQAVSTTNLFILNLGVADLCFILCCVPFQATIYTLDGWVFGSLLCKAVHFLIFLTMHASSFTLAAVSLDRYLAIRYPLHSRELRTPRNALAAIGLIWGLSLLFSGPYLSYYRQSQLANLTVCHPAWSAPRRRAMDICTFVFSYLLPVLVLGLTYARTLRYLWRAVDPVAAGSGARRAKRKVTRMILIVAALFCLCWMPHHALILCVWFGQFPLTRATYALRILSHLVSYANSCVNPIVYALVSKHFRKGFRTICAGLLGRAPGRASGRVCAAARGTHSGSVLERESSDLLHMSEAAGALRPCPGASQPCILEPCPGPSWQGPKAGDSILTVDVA
INS promoter inh = inhibitors of insulin promoter-driven GFP, primary screen, imaging, TRM-6 cells (human fetal islet line), eGFP reporter, cell count; reporter expression induced with tamoxifen; inhibition, % at 2 µM; actives 0.9% (n = 130,000); AID 1273, 2008;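 active means inhibition above the mean plus 3 SD, with well images judged a real hit on visual review, cut at about 60% in these data, passing the limit was not always enough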
INS promoter inh cell count = second read-out of INS promoter inh, no call of its own (marks repeat the call); normalized cell count, %; measured here: cell count, toxicity; reference of the scale not given here;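 cells exposed to compound for 48 h; stained nuclei by imaging scaled within each plate; lower means fewer cells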
HSV replic up primary fold = second read-out of HSV replic up, no call of its own (marks repeat the call); fold increase; compound at 10 µM; measured here: primary screen fold increase 10 uM; tested in PC3 cells;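 GFP signal in the first replicate; 1 = infected wells without compound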
Active calls of the source: *.

Cc1csc2nc(CNC(=O)CCC(=O)O)cn12 was read as HSV replic up inactive, PKD1 kinase inh -1, RGS16-Gao HTS 99, GALR2 agonist -1.4, INS promoter inh 0, INS promoter inh cell count 185 and HSV replic up primary fold 1.1.
`NS(=O)(=O)c1cccc(NC(=O)COc2ncnc3c2cnn3-c2ccccc2)c1` gave HSV replic up inactive, PKD1 kinase inh 2, RGS16-Gao HTS 104 and HSV replic up primary fold 0.94.
Screening CC/C(=N\NC(=O)c1ccc2c(c1)OCO2)C12CC3CC(CC(C3)C1)C2 returned HSV replic up inactive, PKD1 kinase inh -1, RGS16-Gao HTS 102, GALR2 agonist -1.4, INS promoter inh 33, INS promoter inh cell count 107 and HSV replic up primary fold 0.79.
Screening O=C(NCc1ccc(F)cc1)c1nc(-c2cccs2)no1 returned HSV replic up inactive, PKD1 kinase inh 1, RGS16-Gao HTS 96, INS promoter inh -24, INS promoter inh cell count 100 and HSV replic up primary fold 1.
Screening Cc1ccc(NC(=O)CCN2C(=O)c3ccncc3C2=O)cc1 returned HSV replic up inactive, PKD1 kinase inh 4, RGS16-Gao HTS 101, GALR2 agonist -1.3, INS promoter inh 15, INS promoter inh cell count 205 and HSV replic up primary fold 0.93.
For COc1ccccc1/C=C/C=N\N1CCN(Cc2ccccc2Cl)CC1 the results were HSV replic up inactive, PKD1 kinase inh -7, RGS16-Gao HTS 112, GALR2 agonist 0.1, INS promoter inh 28, INS promoter inh cell count 101 and HSV replic up primary fold 0.97.
For COc1ccc(OCCSc2nnc(CCNC(=O)c3ccc(OC)cc3)n2C)cc1 the results were HSV replic up inactive, PKD1 kinase inh 1, RGS16-Gao HTS 100, GALR2 agonist -2.1, INS promoter inh -16, INS promoter inh cell count 93 and HSV replic up primary fold 0.8.
`CCc1ccc(S(=O)(=O)NCc2cn3ccccc3n2)s1` gave HSV replic up inactive, PKD1 kinase inh 15, RGS16-Gao HTS 107, GALR2 agonist -2.5, INS promoter inh 7, INS promoter inh cell count 153 and HSV replic up primary fold 0.96.
For COc1cc(CC(=O)OCC(=O)Nc2ccc([N+](=O)[O-])cc2)cc(OC)c1OC the results were HSV replic up inactive, PKD1 kinase inh -7, RGS16-Gao HTS 100 and HSV replic up primary fold 1.
`COc1ccc(C(C)=O)cc1CSc1nnc(SCc2cc(C(C)=O)ccc2OC)s1` gave HSV replic up inactive, RGS16-Gao HTS 116 and HSV replic up primary fold 0.97.
`O=S(=O)(NCc1ccco1)c1cccc(S(=O)(=O)N2CCOCC2)c1` gave HSV replic up inactive, PKD1 kinase inh -30, RGS16-Gao HTS 101, GALR2 agonist -1.6, INS promoter inh 0, INS promoter inh cell count 43 and HSV replic up primary fold 1.
For COc1ccc(CC(=O)Nc2nc(-c3cccc([N+](=O)[O-])c3)cs2)cc1 the results were HSV replic up inactive, PKD1 kinase inh -6, RGS16-Gao HTS 104, GALR2 agonist -1.0, INS promoter inh 11, INS promoter inh cell count 142 and HSV replic up primary fold 0.98.
`COc1cccc(OCC(=O)N(Cc2nc(-c3ccc(Cl)cc3)no2)C(C)C)c1` gave HSV replic up inactive, PKD1 kinase inh 7, RGS16-Gao HTS 104, GALR2 agonist -2.2 and HSV replic up primary fold 0.92.
For COc1ccc(S(=O)(=O)N(CC(=O)N2CCCC2)Cc2ccccc2)cc1 the results were HSV replic up inactive, PKD1 kinase inh -7, RGS16-Gao HTS 97, GALR2 agonist -3.5, INS promoter inh -52, INS promoter inh cell count 80 and HSV replic up primary fold 0.97.
`O=C(N/N=C/c1ccccn1)c1cc(-c2ccc(Cl)cc2)nc2ccccc12` gave HSV replic up inactive, PKD1 kinase inh -6, RGS16-Gao HTS 92, GALR2 agonist -1.1, INS promoter inh -7, INS promoter inh cell count 82 and HSV replic up primary fold 0.75.
Screening CCC(Sc1nc2c(c(=O)n1CC)SC(C)C2)C(=O)OC (stereo unspecified) returned HSV replic up inactive, PKD1 kinase inh 2, RGS16-Gao HTS 127, GALR2 agonist -1.7 and HSV replic up primary fold 1.1.
Cc1cc(C(=O)COC(=O)C(C)NC(N)=O)c(C)n1Cc1ccco1 (stereo unspecified) was read as HSV replic up inactive, PKD1 kinase inh -5, RGS16-Gao HTS 101 and HSV replic up primary fold 1.
Screening COc1cc2cc(C(c3nnnn3C3CCCC3)N3CCc4ccccc43)c(=O)[nH]c2cc1OC (stereo unspecified) returned PKD1 kinase inh -8, RGS16-Gao HTS 101, GALR2 agonist -0.9, INS promoter inh 14 and INS promoter inh cell count 132.
For CCC(C)N(CC(=O)NCc1ccc(OC)cc1)C(=O)c1csnn1 (stereo unspecified) the results were HSV replic up inactive, PKD1 kinase inh -8, RGS16-Gao HTS 101, GALR2 agonist -1.6 and HSV replic up primary fold 0.84.
For CCOC(=O)C1=C(c2ccccc2)NC(N)=NC1c1ccc(OCc2ccc(Cl)cc2)c(OC)c1 (stereo unspecified) the results were HSV replic up inactive, RGS16-Gao HTS 99 and HSV replic up primary fold 0.64.
Screening COc1ccc(OC)c(/C=C/c2c([N+](=O)[O-])c(=O)n(C)c(=O)n2C)c1 returned HSV replic up inactive, PKD1 kinase inh -8, RGS16-Gao HTS 102 and HSV replic up primary fold 0.77.
For Cc1cccc(CN2C(=O)N/C(=C/c3cc(C)n(-c4ccccn4)c3C)C2=O)c1 the results were HSV replic up inactive, PKD1 kinase inh -3, RGS16-Gao HTS 99, GALR2 agonist -3.1, INS promoter inh -4, INS promoter inh cell count 97 and HSV replic up primary fold 1.
For CC(C)(C)NC(=O)NC(=O)COC(=O)c1ccco1 the results were HSV replic up inactive, PKD1 kinase inh 5, RGS16-Gao HTS 102, GALR2 agonist -2.0, INS promoter inh 32, INS promoter inh cell count 117 and HSV replic up primary fold 0.95.
Nc1ccc(C(=O)OCc2ccncc2)cc1[N+](=O)[O-] was read as HSV replic up inactive, PKD1 kinase inh 1, RGS16-Gao HTS 100, INS promoter inh -17, INS promoter inh cell count 129 and HSV replic up primary fold 0.96.

Already shown: 6 of the compounds above.
`COc1cccc(OCC(=O)N(Cc2nc(-c3ccc(Cl)cc3)no2)C(C)C)c1` gave HSV replic up inactive, PKD1 kinase inh 7, RGS16-Gao HTS 104, GALR2 agonist -2.2 and HSV replic up primary fold 0.92.
For COc1ccc(S(=O)(=O)N(CC(=O)N2CCCC2)Cc2ccccc2)cc1 the results were HSV replic up inactive, PKD1 kinase inh -7, RGS16-Gao HTS 97, GALR2 agonist -3.5, INS promoter inh -52, INS promoter inh cell count 80 and HSV replic up primary fold 0.97.
`O=C(N/N=C/c1ccccn1)c1cc(-c2ccc(Cl)cc2)nc2ccccc12` gave HSV replic up inactive, PKD1 kinase inh -6, RGS16-Gao HTS 92, GALR2 agonist -1.1, INS promoter inh -7, INS promoter inh cell count 82 and HSV replic up primary fold 0.75.
Screening CCC(Sc1nc2c(c(=O)n1CC)SC(C)C2)C(=O)OC (stereo unspecified) returned HSV replic up inactive, PKD1 kinase inh 2, RGS16-Gao HTS 127, GALR2 agonist -1.7 and HSV replic up primary fold 1.1.
Cc1cc(C(=O)COC(=O)C(C)NC(N)=O)c(C)n1Cc1ccco1 (stereo unspecified) was read as HSV replic up inactive, PKD1 kinase inh -5, RGS16-Gao HTS 101 and HSV replic up primary fold 1.
Screening COc1cc2cc(C(c3nnnn3C3CCCC3)N3CCc4ccccc43)c(=O)[nH]c2cc1OC (stereo unspecified) returned PKD1 kinase inh -8, RGS16-Gao HTS 101, GALR2 agonist -0.9, INS promoter inh 14 and INS promoter inh cell count 132.

Additional compounds follow.
For O=C(Cn1cc([N+](=O)[O-])cn1)NCCc1c[nH]c2ccccc12 the results were HSV replic up inactive, PKD1 kinase inh 1, RGS16-Gao HTS 104, INS promoter inh 50, INS promoter inh cell count 124 and HSV replic up primary fold 0.99.
N#Cc1ccc2ccn(CC(=O)NC3CCCCCC3)c2c1 was read as HSV replic up inactive, PKD1 kinase inh -13, RGS16-Gao HTS 102, GALR2 agonist -2.7, INS promoter inh -12, INS promoter inh cell count 134 and HSV replic up primary fold 0.82.
COC(=O)N/N=C/c1cc(C)n(-c2ccc(Br)cc2)c1C was read as HSV replic up inactive, RGS16-Gao HTS 101 and HSV replic up primary fold 0.95.
`Cc1ccc(NC(=S)N2CCC(c3nc4ccccc4s3)CC2)cc1C` gave HSV replic up inactive, PKD1 kinase inh -11, RGS16-Gao HTS 99, GALR2 agonist -2.8, INS promoter inh 10, INS promoter inh cell count 121 and HSV replic up primary fold 0.84.
CCOc1nsc(OCC)n1 was read as HSV replic up inactive, RGS16-Gao HTS 99 and HSV replic up primary fold 0.9.
For COc1ccc(CC2(CO)CCN(S(=O)(=O)c3c(C)nn(C)c3C)CC2)cc1 the results were HSV replic up inactive, PKD1 kinase inh 6, RGS16-Gao HTS 102, INS promoter inh -28, INS promoter inh cell count 120 and HSV replic up primary fold 1.1.
Screening O=C1CC(C(=O)Nc2ccc(Cl)cc2)S/C(=N\N=C\c2ccco2)N1 (stereo unspecified) returned HSV replic up inactive, RGS16-Gao HTS 48 and HSV replic up primary fold 1.1.
For CC(C)CN(CC(C)C)C(=O)c1cccc(S(=O)(=O)N2CCc3ccccc32)c1 the results were HSV replic up inactive, PKD1 kinase inh -5, RGS16-Gao HTS 101 and HSV replic up primary fold 1.
Cc1cccc(OCC(=O)N2CCN(C(=O)c3cccs3)CC2)c1 was read as HSV replic up inactive, PKD1 kinase inh -5, RGS16-Gao HTS 98, GALR2 agonist -2.0, INS promoter inh -6, INS promoter inh cell count 85 and HSV replic up primary fold 0.92.
Screening CCn1c(NC(=O)C(C)C)c(-c2ccccc2)c(=O)c2ccccc21 returned HSV replic up inactive, RGS16-Gao HTS 100 and HSV replic up primary fold 0.93.
Screening CC(=O)Nc1ccccc1OCC(=O)NCC(F)(F)F returned HSV replic up inactive, PKD1 kinase inh 4, RGS16-Gao HTS 104, INS promoter inh -36, INS promoter inh cell count 130 and HSV replic up primary fold 0.65.
Screening CCN1C(=O)[C@@H]2C(C(=O)c3cnccn3)=NN[C@@H]2C1=O returned HSV replic up inactive, RGS16-Gao HTS 102 and HSV replic up primary fold 1.1.
C(#Cc1ccc(C#CCN2CCOCC2)cc1)CN1CCOCC1 was read as HSV replic up inactive, PKD1 kinase inh -7, RGS16-Gao HTS 99, GALR2 agonist -0.7, INS promoter inh 23, INS promoter inh cell count 102 and HSV replic up primary fold 1.1.
CCCCNC(=S)NNC(=O)c1cccnc1 was read as HSV replic up inactive, PKD1 kinase inh -16, RGS16-Gao HTS 104, GALR2 agonist -2.0, INS promoter inh 38, INS promoter inh cell count 120 and HSV replic up primary fold 0.92.
Screening Cn1cnc([N+](=O)[O-])c1Oc1ccccc1 returned HSV replic up inactive, PKD1 kinase inh 3, RGS16-Gao HTS 100, GALR2 agonist -1.1, INS promoter inh 24, INS promoter inh cell count 98 and HSV replic up primary fold 1.1.
`Cc1ccc(S(=O)(=O)N(c2ccccc2)C2CCS(=O)(=O)C2)cc1` (stereo unspecified) gave HSV replic up inactive, PKD1 kinase inh -6, RGS16-Gao HTS 100, GALR2 agonist -3.2, INS promoter inh -33, INS promoter inh cell count 114 and HSV replic up primary fold 0.96.
For CCOc1cc(/C=N/O)ccc1OCc1ccc(C)cc1 the results were HSV replic up inactive, PKD1 kinase inh -6, RGS16-Gao HTS 109, GALR2 agonist -0.2, INS promoter inh -76, INS promoter inh cell count 174 and HSV replic up primary fold 0.76.
For CC(C)C(=O)Nc1ccc(C(=O)NN2C(=O)c3ccccc3C2=O)cc1 the results were HSV replic up inactive, PKD1 kinase inh -2, RGS16-Gao HTS 105, GALR2 agonist 0.4, INS promoter inh 30, INS promoter inh cell count 156 and HSV replic up primary fold 0.97.
CCOC(=O)CCCNS(=O)(=O)c1c(C)ccc2nsnc12 was read as HSV replic up inactive, PKD1 kinase inh 5, RGS16-Gao HTS 100, GALR2 agonist -1.9, INS promoter inh -121, INS promoter inh cell count 111 and HSV replic up primary fold 0.86.
For COCCNC(=O)c1cnn2c(C(F)(F)F)cc(-c3ccc(C)cc3)nc12 the results were HSV replic up inactive, PKD1 kinase inh -4, RGS16-Gao HTS 104 and HSV replic up primary fold 0.73.
Screening CCCn1c(SCC(=O)N(CC)CC)nnc1-c1ccncc1 returned HSV replic up inactive, PKD1 kinase inh -1, RGS16-Gao HTS 101 and HSV replic up primary fold 0.95.
O=C(CSc1nc(-c2ccco2)cc(C(F)(F)F)n1)Nc1cccnc1 was read as HSV replic up inactive, PKD1 kinase inh 1, RGS16-Gao HTS 108, GALR2 agonist 0.2 and HSV replic up primary fold 0.86.

Screens deposited in PubChem by several laboratories.
